High-throughput results: PubChem BioAssay, Johns Hopkins Ion Channel Center
KCNQ2 pot: potentiators of rat KCNQ2 potassium channel; Potassium voltage-gated channel subfamily KQT member 2 (Rattus norvegicus), O88943; CHO-K1 KCNQ2, FluxOR thallium flux fluorescence; active compounds read high; B-score at 10 µM; 310,000 tested, 0.54% active; AID 2239, 2010;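 active = fluorescence ratio B-score at least 3 SD of library B-scores, with initial fluorescence B-score within 3 SD, cut at about 5.3 in these data; same plate scores as AID 2156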;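 note: B-score of peak minus minimum over baseline fluorescence ratio after K+ and Tl+ stimulus; positive B-score means potentiation of KCNQ2 with more thallium influx and brighter signal; only the inactives scoring about 0 or higher are listed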
Target sequence (O88943 whole entry, looked up): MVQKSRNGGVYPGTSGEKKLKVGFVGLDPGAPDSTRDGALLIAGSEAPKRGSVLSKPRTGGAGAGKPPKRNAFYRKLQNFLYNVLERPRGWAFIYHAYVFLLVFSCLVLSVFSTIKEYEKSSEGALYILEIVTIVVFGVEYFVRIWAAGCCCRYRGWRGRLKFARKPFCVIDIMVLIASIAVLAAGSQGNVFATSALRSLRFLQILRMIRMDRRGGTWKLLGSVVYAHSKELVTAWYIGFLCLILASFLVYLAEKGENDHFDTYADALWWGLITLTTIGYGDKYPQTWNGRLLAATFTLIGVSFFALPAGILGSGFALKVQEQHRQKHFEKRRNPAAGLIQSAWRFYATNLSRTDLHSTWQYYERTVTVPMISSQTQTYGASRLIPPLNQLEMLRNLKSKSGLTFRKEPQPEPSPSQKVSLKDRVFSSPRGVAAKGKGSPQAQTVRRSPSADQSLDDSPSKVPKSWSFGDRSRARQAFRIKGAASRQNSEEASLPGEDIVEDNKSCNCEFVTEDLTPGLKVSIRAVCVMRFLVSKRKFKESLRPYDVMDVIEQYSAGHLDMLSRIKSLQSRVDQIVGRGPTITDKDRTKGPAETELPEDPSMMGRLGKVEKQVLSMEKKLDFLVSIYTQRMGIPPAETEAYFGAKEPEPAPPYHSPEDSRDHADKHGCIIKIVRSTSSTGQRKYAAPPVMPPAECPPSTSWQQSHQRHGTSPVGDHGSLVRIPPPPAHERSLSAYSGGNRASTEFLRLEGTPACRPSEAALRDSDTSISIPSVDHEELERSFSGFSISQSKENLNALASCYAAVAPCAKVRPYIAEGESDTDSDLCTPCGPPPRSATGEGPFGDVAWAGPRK
KCNQ2 pot baseline: further read-out of KCNQ2 pot, marked with its call; B-score; compound at 10 µM; measured here: initial fluorescence intensity artifact check;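 brightness before thallium and not channel activity; 0 = typical well and far values either way flag optical interference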
* marks the source's active call; other numbers are inactive results.

SMILES	KCNQ2 pot	KCNQ2 pot baseline
CCC(C)(CC(=O)Nc1nccs1)c1ccccc1 (centres undefined)	2.8	-0.54
N=C1/C(=C\c2ccc(Br)o2)C(=O)N=C2SC(CC(=O)N3CCCCC3)=NN12	0.61	0.21
CCC(C)Oc1cc(-c2ccnc(Nc3cccc(Cl)c3)n2)ccn1 (centres undefined)	0.15	1.8
C/C(=N\NC(=O)c1cc(C)oc1C)c1ccc2c(c1)OCO2	0.16	1.1
CCOCCCN1CC(C(=O)NCc2ccc3c(c2)OCO3)CC1=O (centres undefined)	0.83	1.6
COc1ccc(N(C(=O)c2ccc(F)cc2)C2=CC3CCC(C2)N3C)cc1 (centres undefined)	0.22	1.9
CN(C)S(=O)(=O)c1ccc(C(=O)NCC(=O)Nc2ccc(F)c(F)c2)cc1	0.43	2.9
Cn1nnnc1SCC(=O)c1ccco1	0.89	1
O=C(CCC1CCCN(C(=O)C2=CCCC2)C1)N1CCN(c2ccccn2)CC1 (centres undefined)	0.48	-0.51
CCn1c(SCC(=O)NC2CC2)nnc1-c1csc(C)c1	1.2	-0.4
COCc1cc(C)n(CC(=O)N/N=C/c2ccc(-c3ccc(Cl)c(C(=O)O)c3)o2)c(=O)c1C#N	0.7	-0.06
CCCNC(=S)NC1CC2CCCC(C1)N2Cc1ccc(F)cc1 (centres undefined)	0.59	1.3
CC1=NN(c2ccccc2)C(=O)/C1=C/c1c(O)n(-c2ccc(F)cc2)[nH]c1=O	0.58	0.13
CC1CCc2nc(NC(=O)Nc3ccc4c(c3)OCO4)sc2C1 (centres undefined)	0.54	1.1
C=CCOc1nc(-c2ccncc2)nc2ccccc12	0.09	-0.75
O=C(COc1ccccc1)N1CCN=C1SCc1ccccc1F	1.5	-0.04
O=C(Nc1cccnc1)Nc1ccc(F)c(Cl)c1	5.1	3.1
O=C(Nc1ccc(F)cc1F)N1CCCCCC1	1.5	1.7
COc1ccc(-c2ccc(-c3nnc(-c4ccncc4)o3)cc2)cc1	1.3	-0.03
Cc1ccc(N2C(=O)C(F)(F)C2c2ccccc2)cc1 (centres undefined)	0.61	-0.05
CCOC(=O)CN1C(=O)CN(c2ccc(C)c(C)c2)C1=O	0.42	0.34
CC(=O)c1cccc(OCC(=O)Nc2cc(Cl)ccc2-n2cncn2)c1	2.1	-0.01
Cc1nc2c(-c3ccc(F)cc3)c(C)nn2c(C)c1CCC(=O)NCCN1CCOCC1	1	0.23
O=C(Nc1cccc2ccccc12)c1ccccc1	1.9	0.23
COc1ccc2[nH]c(=O)c(CN(C(=O)c3cccnc3)c3cccc(C)c3)cc2c1	0.42	0
S=c1nc[nH]c2c1sc1nc(-c3ccccc3)c3c(c12)CCCC3	16*	0.99*
CCOc1ccc(NC(=O)c2csc3c2CCCC3)cc1	0.01	0.15
c1ccc2c(c1)nc(-c1ccncc1)n1nnnc21	2.5	-2.4
COc1ccc(C(=O)NCC(=O)OCn2nnc3ccccc3c2=O)cc1OC	0.01	6.7
COc1cc(-c2nc3ccccn3c2NCC2CCCO2)ccc1O (centres undefined)	0.81	-0.35

Individual results from the list:
COc1ccc(C(=O)NCC(=O)OCn2nnc3ccccc3c2=O)cc1OC in KCNQ2 pot baseline is entered as 6.7
CCC(C)(CC(=O)Nc1nccs1)c1ccccc1 (centres undefined) in KCNQ2 pot is entered as 2.8

Further entries.
SMILES	KCNQ2 pot	KCNQ2 pot baseline
CC(C)CN(C(=O)COC(=O)CSc1ccccc1)c1c(N)n(Cc2ccccc2)c(=O)[nH]c1=O	2.1	0.59
C#CCNC(=O)C1=C[C@H](c2ccc(C(F)(F)F)cc2)[C@@H](CCCO)[C@H](OCC)O1	1.6	0.73
CCO[C@@H]1OC(C(=O)N2CCOCC2)=C[C@H](C(C)(C)C)[C@H]1CCCO	0.46	1.1
CCOC(=O)c1ccc(NC(=O)C2C3C=CC(C3)C2C(=O)O)cc1 (centres undefined)	0.05	-0.02
CN(c1c(C#N)c(C(F)(F)F)nn1C)N(S(C)(=O)=O)S(C)(=O)=O	0.55	-0.02
CC(C)CNS(=O)(=O)c1ccc(C(=O)Nc2ccc3c(c2)OCCO3)cc1	0.24	-1.1
CCOC(=O)c1c(-c2ccccc2)oc2ccc(O)cc12	0.25	-0.29
COc1ccc(OC)c(/C=N/NC(=O)C(O)c2ccccc2)c1 (centres undefined)	0.99	-1.2
COC(=O)Nc1ncc(CN2CCCCC2)s1	0.16	0.3
Cc1occc1C(=O)Nc1cccc(C(F)(F)F)c1	1.1	0.56
CCOC(=O)C(O)C1CCc2c([nH]c3ccc(C)cc23)C1=O (centres undefined)	0.58	0.46
O=c1cc(-c2ccccc2)nc2nc(SCc3ccccc3)[nH]n12	0.33	0.95
CCn1c(CC(=O)Nc2ccccc2C)nnc1SCC(=O)Nc1nncs1	0.1	0.54
CCOC(=O)C1=C(C)NC(SC)=NC1c1ccc(OC)cc1 (centres undefined)	0.08	-2.3
O=C1NC(c2cccc([N+](=O)[O-])c2)=CCN1c1ccccc1O	2.9	0.13
CCCC1CC(C)(C(=O)CSc2n[nH]c(-c3ccccc3)n2)OC1=O (centres undefined)	0.2	0.53
CC(=O)Nc1ccc(Oc2nc(-c3cccnc3)nc3sc4c(c23)CCCC4)cc1	0.25	-0.01
CCc1nn2c(=O)cc(COc3cccc(NC(=O)c4ccco4)c3)nc2s1	1.1	2.2
Cc1nn(C)c2c(=O)c(=O)c2n(C)[nH]1	0.11	-0.21
CCOC(=O)NN1C(=O)c2ccccc2NC1(C)C	0.64	-0.55
CCOC(=O)c1c(C)[nH]c(C)c1C(=O)COC(=O)/C=C/c1cccc(C(F)(F)F)c1	0.72	1.2
O=C1CC(N2CCOCC2)C(=O)N1c1ccccc1Cl (centres undefined)	0.01	-0.34
O=C(COC(=O)c1ccc(Br)cc1)NCc1ccc(F)cc1	0.02	0.01
Cn1ccc2cc(NC(=O)Nc3cccnc3)ccc21	0.32	-0.54
CCc1ccc(CN(C)C(=O)c2cc(S(=O)(=O)N3CCOCC3)ccc2N2CCCC2)cc1	0.38	0.8
COc1ccc(CC2(CO)CCN(Cc3cccc(OC)c3OC)CC2)cc1	0.08	0.25
COc1ccc(OC)c(CCNC(=O)CCc2nnc3ccc(N4CCCCC4)nn23)c1	0.59	0.55
COc1c(O)cnn(-c2ccccc2)c1=O	0.17	0.74
CCOC(=O)c1ccc([N+](=O)[O-])c(CS(=O)(=O)c2ccc(Cl)cc2)c1	0.74	0
O=C(Nc1nnc(COc2ccc(Cl)cc2)s1)C1CCCO1 (centres undefined)	0.01	-0.79

A different layout for 4 compounds above.
structure: CC(=O)Nc1ccc(Oc2nc(-c3cccnc3)nc3sc4c(c23)CCCC4)cc1
- KCNQ2 pot: 0.25
- KCNQ2 pot baseline: -0.01
structure: CCc1nn2c(=O)cc(COc3cccc(NC(=O)c4ccco4)c3)nc2s1
- KCNQ2 pot: 1.1
- KCNQ2 pot baseline: 2.2
structure: Cc1nn(C)c2c(=O)c(=O)c2n(C)[nH]1
- KCNQ2 pot: 0.11
- KCNQ2 pot baseline: -0.21
structure: CCOC(=O)NN1C(=O)c2ccccc2NC1(C)C
- KCNQ2 pot: 0.64
- KCNQ2 pot baseline: -0.55

Next section
SMILES	KCNQ2 pot	KCNQ2 pot baseline
O=[N+]([O-])c1ccc(Cl)c(/C=N/NC(=S)Nc2ccccc2)c1	0.02	1.5
CN(C)c1ccnc(NCc2ccccc2)c1C#N	0.98	-3.1
COc1ccc(CN2CCC(C(=O)c3ccc(Cl)cc3)CC2)cc1	0.34	0.71
O=C(CCN1C(=O)c2ccccc2C1=O)Nc1ccc(F)cc1	0.09	0.99
COC(=O)Nc1sc2c(c1C(=O)NCc1ccco1)CCCC2	0.02	-1
Cc1ccc(S(=O)(=O)N(C)CC(=O)N2CCN(Cc3ccc4c(c3)OCO4)CC2)cc1	0.7	0.76
CC(C)NC(=O)C1CCN(C2CCN(C(=O)C3=CCCC3)CC2)CC1	1.6	-0.43
CCOc1ccc(NC(=O)Nc2nc3ccc(S(C)(=O)=O)cc3s2)cc1	0.32	-0.8
O=C(c1cccs1)N1CCCC(N2CCN(c3ccc(F)cc3)CC2)C1 (centres undefined)	1.9	-2.2
Cc1ccc(N2C(=O)N(CC(=O)N3CCCc4ccccc43)C(=O)C2C)cc1 (centres undefined)	2.1	-0.83
O=C(N/N=C1\CCc2ccccc21)c1ccc(O)cc1	1.8	0.59
CC(C(=O)Nc1ccccc1)c1ccc(-c2ccccc2)c(F)c1 (centres undefined)	0.16	-0.54
NC(=O)CN1C(=O)C(=O)N(Cc2cccc(C(F)(F)F)c2)C1=O	1	-0.88
COc1ccccc1CNC(=O)COC(=O)Cn1cnc2ccccc21	0.08	0.85
COC(=O)c1ccccc1N=C(SC)N(C)C	0.3	-1.9
CCCN1C(=O)c2ccc(C(=O)Nc3nccs3)cc2C1=O	0.38	-0.93
COC(=O)C(C(C)=O)C1=C/C(=N\S(=O)(=O)c2ccc(C)cc2)c2ccccc2C1=O (centres undefined)	2.1	-1.1
O=C(CSc1nnnn1-c1ccc(C(=O)O)cc1)NC1CCCCC1	1.2	-1
O=S(=O)(Nc1ccc(S(=O)(=O)Nc2ncccn2)cc1)c1ccc(Cl)cc1	0.49	0.12
CCCCSc1nc2ccccc2[nH]1	0.53	-0.12
O=C(NCCN1CCCCC1)c1cc2ccccc2[nH]1	1.5	0.67
CCCCN(CC)CCCNC(=O)Cn1nc(Cc2ccncc2)c2ccccc2c1=O	0.53	0.04
C/C(=N\NC(=O)c1nnn(-c2nonc2N)c1-c1cccs1)c1ccc(O)cc1	0.47	-0.79
NS(=O)(=O)c1ccc(NC(=S)NC(=O)c2ccc(Br)o2)cc1	1.6	-0.11
COc1ccc(-c2nnc(SCC(=O)NCc3cccs3)n2C(C)C)cc1	0.85	-0.64
CCOc1cc(/C=N\NC(=O)C2C(=O)NCC2c2ccccc2)ccc1OC (centres undefined)	1.1	1.8
Cc1nc(Nc2nc3ccccc3o2)nc2c1CCC2	0.69	1.7
CSc1nc(SCCN(C)C)c2c3c(sc2n1)COC(C)(C)C3	0.88	0.51
CCOC(=O)c1ccc(NC(=O)Cn2nnc(-c3ccc(C)cc3)n2)cc1	0.1	2.4
CCN(CC)Cc1c(C(=O)N/N=C/c2ccccn2)nnn1-c1nonc1N	0.58	-0.16

Retrieved by structure from the list above, 5 records:
SMILES	KCNQ2 pot	KCNQ2 pot baseline
Cc1nc(Nc2nc3ccccc3o2)nc2c1CCC2	0.69	1.7
C/C(=N\NC(=O)c1nnn(-c2nonc2N)c1-c1cccs1)c1ccc(O)cc1	0.47	-0.79
CCN(CC)Cc1c(C(=O)N/N=C/c2ccccn2)nnn1-c1nonc1N	0.58	-0.16
O=C(NCCN1CCCCC1)c1cc2ccccc2[nH]1	1.5	0.67
CCCCSc1nc2ccccc2[nH]1	0.53	-0.12

(more compounds)
SMILES	KCNQ2 pot	KCNQ2 pot baseline
CCCc1c(C(=O)N/N=C(/C)c2ccncc2)nnn1-c1nonc1N	0.52	-0.14
Cc1ccc(OCC(=O)Nc2ccc(N(C)C)cc2)cc1	1.4	-1.7
COC(=O)c1[nH]c2cccc(C)c2c1NC(=O)CN1CCN(C(=O)c2ccco2)CC1	2	0.15
CCOC(=O)Cn1cnc2c(nnn2-c2ccccc2)c1=O	1.1	-0.91
Cc1cc(C)cc(OCCn2ccnc2)c1	1.3	2.3
O=C(Nc1ccc(N2CCOCC2)nc1)c1ccc(C(F)(F)F)cc1	1.1	-1.1
COc1ccc(-n2c(SCC(=O)NNC(=O)c3ccc(C)cc3)nnc2-c2ccncc2)cc1	0.33	0.97
COc1ccc(/C=C/C(=O)NCCc2ccc(S(N)(=O)=O)cc2)cc1	1.7	3
Nc1nc(NCC2CCCO2)nc(NCC2CCCO2)c1[N+](=O)[O-] (centres undefined)	0.79	0.11
CCC(=O)Nc1sccc1C(=O)OC	0.38	1.9
CCN(C(=O)CSc1nc(-c2ccccc2)c(-c2ccccc2)[nH]1)C1CCS(=O)(=O)C1 (centres undefined)	0.26	-1.5
Cc1cccc(C)c1NC(=O)CN(C)CC(=O)Nc1ccc(F)c(Cl)c1	1	-3.8
CCOC(=O)c1[nH]c(C)c(C(=O)NC(C)CC)c1C (centres undefined)	2.4	0.9
Cc1cccc(Cn2cnc3c(nnn3Cc3ccc(F)cc3)c2=O)c1	0.84	-1
COC(=O)c1cc(NC(=O)c2ccc([N+](=O)[O-])cc2)c(=O)oc1C	0.87	-0.18
CCC1(CC)NC(=O)NC1=O	0.51	-0.77
CNC(=O)/C(C#N)=C/c1cn(CC(=O)NCc2ccco2)c2ccccc12	0.12	1.1
CCc1cc(=O)oc2cc(OC(C)C(=O)NCC3CCC(C(=O)O)CC3)c(Cl)cc12 (centres undefined)	1.1	1.2
CC1(c2ccc3ccccc3c2)NC(=O)N(CC(=O)N2CCN(c3ccccc3O)CC2)C1=O (centres undefined)	0.1	-0.81
COc1ccc(S(=O)(=O)N2c3ccccc3OCC2c2ccccc2)cc1 (centres undefined)	0.37	-0.49
CCOC(=O)Cn1cnc2c(nnn2Cc2ccc(Cl)cc2)c1=O	0.19	-1.3
CCCOC(=O)CSC1=C(C#N)C(c2ccccc2OCC)C(C#N)C(=O)N1 (centres undefined)	1.9	0.18
O=S(=O)(c1ccc(NCc2ccc(F)cc2)nc1)N1CCCC1	0.29	-1.7
Cc1nc(C)c(C(=O)N(c2ccccc2F)C(C(=O)NCC2CCCO2)c2ccccc2)s1 (centres undefined)	0.06	0.33
CCN(CC)CCNC(=O)c1ccc(Cl)c(S(=O)(=O)Nc2ccccc2OC)c1	0.93	0.08
Cn1c(=O)c2c(ncn2CC(O)CNc2ccc(F)cc2)n(C)c1=O (centres undefined)	0.13	-0.03
CCOC(=O)C1CCCN(c2c(NCCc3ccccc3)c(=O)c2=O)C1 (centres undefined)	0.13	-0.14
C/C(=C\c1ccccc1F)C(=O)c1c(C)cc(C)[nH]c1=O	1.2	-0.19

Some of the compounds tested. The share of hits here may be higher or lower than overall.
